ClpP mod: qHTS Assay for Activators of ClpP; ATP-dependent Clp protease proteolytic subunit (Bacillus subtilis (strain 168)), P80244; Potency, µM (top dose mostly 57.5 µM), inactives show at the highest dose activity change, negative = active; AID 651965, 2013; purified B. subtilis ClpP, FRET peptide cleavage, 20 min; hit rate 1.9% among 340,000; active = well fitted falling curve with a large enough effect; inconclusive = small, poorly fitted or top-dose-only effect; inactive = no such curve, though single readings can be large or run the other way; also: potency is read from the fitted curve at half-maximal effect; the source files actives as falling curves though it sought activators and does not explain the sign; nearly all actives have a fitted effect of over 65% in size; many hits overshoot -100%
Target sequence (P80244 whole entry, looked up): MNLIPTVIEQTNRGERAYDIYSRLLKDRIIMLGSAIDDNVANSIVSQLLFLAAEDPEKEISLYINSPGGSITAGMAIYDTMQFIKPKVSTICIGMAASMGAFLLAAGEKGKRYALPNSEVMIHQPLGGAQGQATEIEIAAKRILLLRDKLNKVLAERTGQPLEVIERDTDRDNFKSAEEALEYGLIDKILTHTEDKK
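FRET quenching reversal measured ClpP activation: 10 microg/mL B. subtilis ClpP at pH 8 with the FRET-FV decapeptide, read at 430 nm after 320 nm excitation. The 20-min minus 0-min signal was scaled between DMSO/no-enzyme wells and ADEP (5.8 microM final).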
TRPML1 blocker: inhibitors of human TRPML1 channel | Q9GZU1 | TRPML1-inducible cells, Ca2+ dye fluorescence, FDSS; active compounds read low; inhibition of EC80 agonist-evoked calcium signal | activity change, negative = inhibition, % (test concentration not listed) | hit rate 0.02% among 390,000; in the data active means activity change below about -50%; inconclusive means about -30% to -50%; inactive means above about -30%;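 also: stimulus is agonist 54-4 at its EC80 concentration; % is scaled to controls: 0 for no effect and ±100 for the full control effect; compound concentration not given in the record; the text of the record puts the active cut at -80%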
Target sequence (Q9GZU1 whole entry, looked up): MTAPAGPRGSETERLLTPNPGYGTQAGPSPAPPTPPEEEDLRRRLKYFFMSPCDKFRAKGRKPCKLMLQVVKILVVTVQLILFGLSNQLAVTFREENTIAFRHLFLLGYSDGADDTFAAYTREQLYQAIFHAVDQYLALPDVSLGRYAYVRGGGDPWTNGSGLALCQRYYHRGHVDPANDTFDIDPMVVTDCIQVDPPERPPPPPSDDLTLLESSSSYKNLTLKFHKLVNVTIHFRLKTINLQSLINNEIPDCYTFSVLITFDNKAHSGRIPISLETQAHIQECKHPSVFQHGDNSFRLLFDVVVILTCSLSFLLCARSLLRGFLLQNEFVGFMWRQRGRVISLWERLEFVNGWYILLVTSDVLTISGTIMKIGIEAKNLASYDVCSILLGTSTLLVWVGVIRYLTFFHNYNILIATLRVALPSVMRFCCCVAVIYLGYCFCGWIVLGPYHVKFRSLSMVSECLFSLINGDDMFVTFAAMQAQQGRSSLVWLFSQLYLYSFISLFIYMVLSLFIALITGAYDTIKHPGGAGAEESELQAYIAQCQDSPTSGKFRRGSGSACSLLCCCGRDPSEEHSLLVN
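TRPML1-DL cells, Tet-induced overnight (~16 h, 37 °C) at 1,500 cells/well, were loaded with Ca8 no-wash dye plus quencher for 45-90 min at room temperature. Compounds were pinned during FDSS kinetic reading; agonist 54-4 at EC80 (4 uM final) then added.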
An asterisk follows results filed as active; ? = inconclusive.

Screens in order: ClpP mod, TRPML1 blocker
1. Cc1ccc(N2CCN(C(=O)c3[nH]c(C(F)(F)F)nc3-c3ccccc3)CC2)cc1
  -0.4%, -13
2. Fc1ccc(CNCCCSc2nnnn2-c2ccccc2)cc1
  0.9%, 3
3. CCN(CC)C(=O)Cn1c(=O)n(-c2ccc(Cl)c(Cl)c2)c(=O)c2c(C)c(C(=O)N(CC)CC)sc21
  4.2%, 17
4. CCc1ccc(OC(C)C(=O)N2CCC(c3nc4ccccc4s3)CC2)cc1 (stereo not drawn)
  -3.0%, 4
5. O=c1c2sc3ccccc3c2n(Cc2ccccc2F)c(=O)n1Cc1ccccc1
  -10%, -3
6. Fc1ccc(Cc2cn3cc(-c4ccccc4)nc3s2)cc1
  0.4%, 0
7. COc1cccc(C2CC(=O)Nc3c2c(=O)n(C)c2nc4ccccc4n32)c1 (stereo not drawn)
  4.0%, -1
8. CCc1ccc(CNC(=O)C2CCN(C(=O)c3ccc(-n4c(C)cc5ccccc54)s3)CC2)cc1
  -22%, 13
9. O=C(c1ccc2c(c1)N(Cc1cccc(Cl)c1)C(=O)c1ccccc1S2=O)N1CCN(c2cccc(C(F)(F)F)c2)CC1 (stereo not drawn)
  -3.8%, -2
10. COc1cc(OC)cc(C(=O)N2CCN(C(=O)COc3ccccc3)CC2)c1
  1.4%, 4
11. CCOC(=O)c1c(C)[nH]c(C)c1S(=O)(=O)N1CCC(C(=O)N2CCN(c3cccc(Cl)c3)CC2)CC1
  1.2%, -5
12. COc1cccc(NC(=O)CC(=O)Nc2ccc3nc4n(c(=O)c3c2)CCCCC4)c1
  -14%, 12
13. COC(=O)c1ccccc1-n1cc2c(c1-c1cccc(C)c1)c(=O)n(C)c(=O)n2C
  -29%, 9
14. COc1ccc(N2CCN(C(=O)c3cccc(NC(=O)c4nsc5ccccc45)c3)CC2)cc1
  1.1%, 5
15. CCOc1ccc(CCNC(=O)C2CCN(Cc3nc(-c4ccccc4C)oc3C)CC2)cc1OCC
  -0.6%, 22
16. Cc1ccc(S(=O)(=O)NCCc2nnc3ccc(SCC(=O)Nc4ccc(OC(F)(F)F)cc4)nn23)cc1
  -16%, -8
17. COc1ccc(NC(=O)N2CCC(CN3CCCC3)CC2)c(OC)c1
  -0.8%, 26
18. CN(C)c1ccc(C(CNS(=O)(=O)c2ccc(F)cc2)N2CCCC2)cc1 (stereo not drawn)
  1.6%, -18
19. CC(C)Oc1ccc(C(=O)Nc2ccc3c(c2)CCCN3C(=O)c2cccs2)cc1
  -0.8%, -9
20. CCOC(=O)c1sc(N2C(=O)c3oc4cc(C)c(C)cc4c(=O)c3C2c2ccc(C)cc2)nc1C (stereo not drawn)
  -0.8%, 1
21. CCOc1ccc(NC(=O)Cn2c(=O)n(Cc3ccccc3)c(=O)c3c4c(sc32)CN(C(C)=O)CC4)cc1
  0.1%, 13
22. Cc1cccc(N2CCN(C(=O)CCS(=O)(=O)c3ccc4c(c3)CC(=O)N4C)CC2C)c1 (stereo not drawn)
  -0.2%, 11
23. CC(C)c1ccc(NC(=O)Cn2c(=O)oc3cc(S(=O)(=O)N4CCCC4)ccc32)cc1
  1.2%, ?
24. Cc1cc(NC(=O)CN(C)S(=O)(=O)c2ccc3c(c2)CCCC(=O)N3)ccc1Br
  -0.1%, -9
25. O=C(CSc1nc(-c2ccccc2)no1)N1CCCCC1
  0.2%, -2
26. Cc1cc(Nc2cccc(Cl)c2)nc2ccc(NC(=O)Cc3c(F)cccc3Cl)cc12
  3.7%, -3
27. Cc1ccc(C(CC(=O)NCC2(c3ccccc3)CCCC2)c2ccccc2)c(O)c1 (stereo not drawn)
  -8.5%, 18
28. CCc1ccc(CNC(=O)CCCn2ccc3cc(S(=O)(=O)N4CCCC4)ccc32)cc1
  -6.3%, 28
29. CC(C)(C)c1cc(NC(=O)C2(C)CCN2C(=O)c2ccccc2CCc2ccccc2)no1 (stereo not drawn)
  0.3%, 39
30. CCc1ccc(NC(=O)Cn2c(=O)n(CCC(C)C)c(=O)c3cccnc32)cc1
  -0.9%, -21
31. CN(Cc1ccccc1)C(=O)C1CCN(Cc2cc3ccccc3n2Cc2ccccc2)CC1
  -14%, 27
32. Cc1ccccc1Nc1nn2c(=O)c3ccc(C(=O)NCC(C)c4ccccc4)cc3nc2s1 (stereo not drawn)
  -5.6%, 7
33. CCOC(=O)c1cnn(-c2cccc(F)c2)c1C1CCNCC1
  -1.8%, -14
34. COc1ccc(NC(=O)CN2C(=O)COc3ccc(S(=O)(=O)NC4CCCC4)cc32)cc1OC
  0.5%, 0
35. COc1ccc(NC(=O)CC2C(=O)N(c3ccc(C)cc3)C(=O)N2CCc2ccccc2)cc1 (stereo not drawn)
  -0.7%, 1
36. Cc1ccc(C(=O)N2CCc3cc(CNS(=O)(=O)c4cccs4)ccc32)cc1
  -2.3%, 44
37. Cc1ccc2nc(-c3ccc(Cl)c(NC(=O)COc4cccc(C)c4C)c3)oc2c1
  -16%, 22
38. O=C(Nc1ccc(F)cc1F)C1CCN(S(=O)(=O)c2ccc3[nH]c(=O)ccc3c2)CC1
  -5.6%, 7
39. COc1ccc(C2=NC(c3ccncc3)=Nc3ccc(Br)cc3N2)cc1
  -7.5%, 38
40. O=C(COc1ccccc1[N+](=O)[O-])Nc1cc(-c2nc3cc(Cl)ccc3o2)ccc1Cl
  4.7%, -2
41. CCn1ccc2c(OCC(=O)Nc3ccccc3C)cccc2c1=O
  3.9%, 34
42. COc1ccc(-c2nc(Cn3c(=O)cc(C)c4c(C)nn(-c5ccccc5)c43)c(C)o2)c(OC)c1
  -14%, -5
43. CC(=O)c1cccc(NC(c2ccc(F)cc2)c2nnc(-c3ccccc3)o2)c1 (stereo not drawn)
  -17%, -6
44. O=C(Cn1c(=O)n(-c2ccc(F)c(Cl)c2)c(=O)c2sc3ccccc3c21)NC1CCCCC1
  -20%, 55
45. O=C(Nc1cc(C(F)(F)F)ccc1Cl)c1ccc2c(c1)CCN2S(=O)(=O)c1ccccc1
  -0.8%, 74
46. COc1ccc(OC)c(CNC(=O)c2cc(S(=O)(=O)N3CCC(C)CC3)cn2C)c1
  -2.5%, 1
47. COc1ccc(OC)c(CNC(=O)c2[nH]c(C(F)(F)F)nc2-c2ccccc2)c1
  -8.0%, 9
48. COc1ccc(CNc2nc(-c3ccc(Cl)cc3)nn2C(=O)c2ccccc2)cc1
  -0.1%, 16
49. CCn1nc(C)c2c(-c3ccccc3)cc(=O)n(C(C)C(=O)NCCc3ccc(Cl)cc3)c21 (stereo not drawn)
  3.9%, -13
50. CC(C)(C)OC(=O)N1CCC(c2nnc(SCc3cccc(Cl)c3)o2)CC1
  ?, -6
51. Cc1ccc(Cl)cc1N1CCN(C(=O)c2ccc3c(c2)CCN3S(=O)(=O)c2ccccc2)CC1
  0.6%, 8
52. CCn1c(CN2CCC(C)CC2)nc2cc(NC(=O)c3ccc([N+](=O)[O-])cc3)ccc21
  -0.5%, 4
53. COC(=O)c1ccc2nc(-c3ccc(Cl)cc3)c(Cc3ccccc3OC)n2c1
  -26%, 0
54. CCN(CC)c1ccc(NC(=O)Cn2nc3c(cc2=O)CCCC3)c(C)c1
  -2.1%, 17
55. CCCCSc1nc(-c2cccc(OC)c2)nc2c1Cc1c(CO)cnc(C)c1O2
  -4.4%, -6
56. CCOC(=O)c1c(C)[nH]c(C)c1S(=O)(=O)N(C)CC(=O)N1CCN(c2cccc(Cl)c2)CC1
  -2.5%, 44
57. Cc1cccc(N2CCN(CCNC(=O)Nc3ccc(Cl)cc3)CC2)c1C
  0.7%, 5
58. COc1ccc(S(=O)(=O)Nc2cc3c(cc2NCc2ccccc2)n(C)c(=O)n3C)cc1
  4.1%, 5
59. CSc1ccc(CNC(=O)c2ccc(NC(=O)c3nsc4ccccc34)cc2)cc1
  0.6%, 23
60. Cn1c(=O)oc2cc(S(=O)(=O)NC(CC(=O)O)c3cccc(Br)c3)ccc21 (stereo not drawn)
  -2.0%, -11

Reformatted: results already given.
No.	smiles	ClpP mod	TRPML1 blocker
43	CC(=O)c1cccc(NC(c2ccc(F)cc2)c2nnc(-c3ccccc3)o2)c1 (stereo not drawn)	-17%	-6
26	Cc1cc(Nc2cccc(Cl)c2)nc2ccc(NC(=O)Cc3c(F)cccc3Cl)cc12	3.7%	-3
2	Fc1ccc(CNCCCSc2nnnn2-c2ccccc2)cc1	0.9%	3
24	Cc1cc(NC(=O)CN(C)S(=O)(=O)c2ccc3c(c2)CCCC(=O)N3)ccc1Br	-0.1%	-9
38	O=C(Nc1ccc(F)cc1F)C1CCN(S(=O)(=O)c2ccc3[nH]c(=O)ccc3c2)CC1	-5.6%	7
4	CCc1ccc(OC(C)C(=O)N2CCC(c3nc4ccccc4s3)CC2)cc1 (stereo not drawn)	-3.0%	4
5	O=c1c2sc3ccccc3c2n(Cc2ccccc2F)c(=O)n1Cc1ccccc1	-10%	-3

(cont.)
Screens in order: ClpP mod, TRPML1 blocker
61. CCOc1ccc(C(=O)Nc2cc3c(cc2N2CCCC2)n(C)c(=O)c(=O)n3C)cc1OCC
  28µM*, 22
62. COC(=O)CC1Oc2ccc(Cl)cc2-n2cc(-c3ccc(F)cc3)nc21 (stereo not drawn)
  -2.8%, 0
63. CCOC(=O)c1cc(S(=O)(=O)Nc2ccccc2)[nH]n1
  0.5%, -6
64. Cc1cccc(NC(=O)c2sc(-n3nc(C)c(CCC(C)C)c3C)nc2C)c1
  ?, 38
65. Cc1cccc(CNC(=O)CCCN2C(=O)c3cccnc3Oc3ccccc32)c1
  0.5%, -2
66. Cc1ccc2nc3c(cc(C(=O)NC4CCCC4)c(=N)n3C(C)C)c(=O)n2c1
  4.0%, -12
67. COc1ccc(Br)cc1CNC(=O)c1cnc2sc(N3CCC(C)CC3)nn2c1=O
  -20%, -10
68. CCc1ccccc1NC(=O)[C@H](Cc1ccccc1)N1Cc2ccccc2C1=O
  -1.6%, -1
69. NS(=O)(=O)c1ccc(NC(=O)C(=O)Nc2ccc3nc4n(c(=O)c3c2)CCCCC4)cc1
  -8.5%, -25
70. Cc1ccc(-c2nc3c4cnn(-c5cc(Cl)ccc5Cl)c4ncn3n2)cc1
  -8.8%, 7
71. COCCNC(=O)C(=O)Nc1c2c(nn1-c1ccccc1)CS(=O)(=O)C2
  -1.6%, 0
72. COc1ccc(CC(=O)Nc2sc3c(c2C(=O)Nc2ccccc2)CCCCC3)cc1
  0.3%, 10
73. COc1ccc(-n2nnnc2C(c2cccc3ccccc23)N2CCN(C/C=C/c3ccccc3)CC2)cc1 (stereo not drawn)
  -1.0%, 1
74. CCn1c(=O)cc(OCC(=O)Nc2ccc(C)c(F)c2)c2ccccc21
  -2.4%, 13
75. CCCOC(=O)c1c(NC(=O)c2cc3ccccc3c(=O)o2)sc2c1CCC(C)C2 (stereo not drawn)
  1.7%, -29
76. CCc1ccc(OCC(=O)NCC(c2ccc(Cl)cc2)N2CCOCC2)cc1 (stereo not drawn)
  0.2%, 51
77. CCOc1ccccc1NC(=O)Cn1c(=O)n(-c2ccc(F)cc2)c(=O)c2sc3ccccc3c21
  -25%, -20
78. CCN(Cc1ccccc1)Cc1c(O)ccc2c(=O)c(-c3ccc(Cl)cc3Cl)coc12
  -22%, 7
79. Cc1ccn2c(=O)cc(COc3ccc(NC(=O)C(C)(C)C)cc3)nc2c1
  -17%, 0
80. CCOC(=O)c1ccc(NC(=O)c2oc3c(c2C)-c2nn(Cc4ccccc4Cl)cc2CC3)cc1
  ?, 10
81. CCCN(C(=O)c1cc2c(=O)oc3ccccc3c2s1)c1ccccc1C
  -3.7%, 6
82. O=C(CCCCCn1c(=O)[nH]c2ccccc2c1=O)N1CCN(c2cccc(C(F)(F)F)c2)CC1
  ?, 10
83. CC(C)C[C@H]1CNC(=S)N1C[C@H]1CCCN1C[C@H](Cc1ccccc1)N1C[C@H](Cc2ccc(O)cc2)N(CC2CCCCC2)C1=S
  -0.7%, -3
84. CCOc1ccc(CNC(=O)C2=Cc3cc(Br)ccc3OC2)cc1OC
  1.8%, 11
85. Cc1sc(-c2cc3c([nH]c2=O)CC(c2ccccc2)CC3=O)nc1-c1ccc(Cl)cc1 (stereo not drawn)
  -6.5%, 9
86. CCNC(=O)C1(C)CCCN1C(=O)c1ccc(F)c(Cl)c1 (stereo not drawn)
  2.9%, -2
87. Cc1ccc(CN(C(=O)COc2ccc([N+](=O)[O-])cc2)c2ccccn2)cc1
  -0.3%, -1
88. COc1cccc(NC(=O)Cn2c(=O)n(CCc3ccc(OC)c(OC)c3)c(=O)c3ccccc32)c1
  -29%, 9
89. Cc1ccccc1OCC(=O)Nc1ccc2nc(SCC(=O)N3CCCC3)sc2c1
  -0.3%, 26
90. CCCCc1nn2c(=O)cc(COC(=O)C(C)Oc3ccccc3)nc2s1 (stereo not drawn)
  -3.2%, 4
91. CCOC(=O)c1ccc(N2C(=O)c3n[nH]c(-c4ccco4)c3C2c2ccc(O)cc2)cc1 (stereo not drawn)
  -1.1%, 37
92. COc1ccccc1Cc1nc2ccccc2nc1SCC(=O)NCc1ccc(C)cc1
  1.5%, -11
93. Cc1ccc2c(=O)cc(C(=O)Nc3c(C(=O)Nc4cccc(Cl)c4)oc4ccccc34)oc2c1
  -1.6%, 11

Screening results: PubChem, National Center for Advancing Translational Sciences (NCATS)

These rows are one share of the data; rates above refer to the full screens.
